# Compound activity as filed in PubChem.
# GLA inh pH 4.5: qHTS Assay for Inhibitors of Human alpha-Galactosidase at pH 4.5. Alpha-galactosidase A (Homo sapiens), P06280. purified enzyme, 4-MU-alpha-Gal fluorescence, pH 4.5. activity change, negative = inhibition, % at 105 µM. 230,000 tested, under 10 active; inconclusive = small, poorly fitted or top-dose-only inhibition, or a rising curve; inactive = flat fitted curve, though single readings scatter; no compound was filed as active;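 note: 0% = full activity with enzyme and -100% = basal without enzyme; dose as in the result columns while the protocol names 77 µM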
# Target sequence (P06280 whole entry, looked up): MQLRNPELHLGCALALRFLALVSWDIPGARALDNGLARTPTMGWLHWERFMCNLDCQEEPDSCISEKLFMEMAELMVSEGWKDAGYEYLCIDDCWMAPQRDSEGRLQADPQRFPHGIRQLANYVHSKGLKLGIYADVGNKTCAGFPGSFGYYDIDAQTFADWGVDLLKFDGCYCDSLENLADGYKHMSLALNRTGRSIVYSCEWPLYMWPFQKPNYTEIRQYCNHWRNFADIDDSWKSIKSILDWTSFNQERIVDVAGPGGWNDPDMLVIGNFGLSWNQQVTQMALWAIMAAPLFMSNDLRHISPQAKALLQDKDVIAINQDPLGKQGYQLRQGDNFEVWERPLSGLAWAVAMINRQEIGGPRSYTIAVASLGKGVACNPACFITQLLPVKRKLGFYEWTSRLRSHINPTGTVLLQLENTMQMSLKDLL
# Rango dissoc inh: qHTS Assay for Inhibitors of RanGTP induced Rango (Ran-regulated importin-beta cargo) - Importin beta complex dissociation; Snurportin-1 (Homo sapiens) + GTP-binding nuclear protein Ran (Homo sapiens) + Importin …; Biochemical FRET Rango-importin beta, RanGTP-induced dissociation; Potency, µM (doses to about 46.1 µM), for the others: at the highest dose activity change, negative = inhibition; 340,000 compounds, 0.071% hits; AID 540253, 2011; active means falling FRET ratio curve, often poorly fitted, with flat reads before Ran was added; inconclusive means other falling curves, or compound fluorescence or quenching; inactive means flat or rising ratio curve;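 note: potency is the fitted concentration of half-maximal effect; % of control where 0% means no effect; nearly all actives have a fitted effect of over 45% in size; -100% = wells without RanGTP and RCC1; the record marks most hits as doubtful in a second field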
#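 FRET read at 45 min, room temperature: inhibitors block the CFP/YFP signal rise when RanGTP (0.6 uM Ran, 2 mM GTP, 0.2 uM RCC1) frees Rango (0.1 uM) from importin beta (0.25 uM). Pre-read after 5 min compound exposure flags interference.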
# Rango-impB inh: qHTS Assay for Inhibitors of Rango (Ran-regulated importin-beta cargo) - Importin beta complex formation | Importin subunit beta-1 (Homo sapiens), Q14974 | Rango CFP/YFP FRET sensor + importin beta, 45 min | Potency, µM (top dose mostly 92.2 µM), for the others: at the top dose inhibition of complex formation | 340,000 compounds, 0.031% hits | AID 540263, 2011; active = rising FRET ratio curve, often small or poorly fitted; inconclusive = mostly compound fluorescence or quenching in the first reads; inactive = flat curves in all reads;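 note: potency is the fitted concentration of half-maximal effect; 0% = DMSO wells and 100% = buffer wells lacking importin beta; nearly all actives have a fitted effect of over 15% in size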
#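 FRET biosensor (snurportin 1 IBB flanked by EYFP and cerulean), 50 nM, with compound 5 min, then 0.125 microM importin beta in PBS, 1 mM DTT, 0.02% Tween-20, 0.1% BSA. CFP/YFP ratio read after 45 min at room temperature; pre-read flags interference.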
# miR-21 reporter: qHTS Assay for Modulators of miRNAs and/orActivators of miR-21; HeLa miR-21 FLuc reporter, luciferase, 48 h; Potency, µM (series often up to 38.3 µM), without a hit: at the top dose reporter change, positive = more light; 340,000 tested, under 10 active; active = well fitted rising curve with a large enough effect; inconclusive = small, poorly fitted or top-dose-only effect; inactive = no such curve, though single readings can be large or run the other way;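 note: % of control where 0% means no effect; miR-21 action dims this reporter so a rising signal means less miR-21 action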
#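 HeLa miR-21-FLuc reporter line, endogenous miR-21; 2000 cells/well in DMEM/10% FBS; compound titration up to ~40uM final, 48 h, 37 degree Celsius; luciferase detection reagent, 15 min lysis, CCD luminescence.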
# * hit, by the source's call; ? = inconclusive; / = no result given; [ ] = another dose, or the depositor's remark.
# Preview, two compounds:
SMILES,GLA inh pH 4.5,Rango dissoc inh,Rango-impB inh,miR-21 reporter
CCN(CC(=O)NC(=O)NCc1ccco1)Cc1nc2ccccc2c(=O)[nH]1,-6,-19%,-0.2%,0%
O=C(CNC(=O)c1ccccc1Br)N/N=C/c1ccccc1O,14,-5%,-2.3%,25%

# Main list, repeating the preview:
SMILES,GLA inh pH 4.5,Rango dissoc inh,Rango-impB inh,miR-21 reporter
CCN(CC(=O)NC(=O)NCc1ccco1)Cc1nc2ccccc2c(=O)[nH]1,-6,-19%,-0.2%,0%
O=C(CNC(=O)c1ccccc1Br)N/N=C/c1ccccc1O,14,-5%,-2.3%,25%
O=C(NCc1ccc(F)cc1)C1CCCN(S(=O)(=O)c2ccc(-n3cnnn3)cc2)C1 (configuration not stated),/,-2%,0.0%,-3%
COC(=O)c1nn(-c2ccccc2)c(Cl)c1/C=N/OCc1c(Cl)cccc1Cl,/,12%,1.4%,/
O=C(O)CC12CC3CC(C1)CC(n1ncc(NCc4ccc(F)cc4Cl)c(Cl)c1=O)(C3)C2,2[21.1 µM],4%,2.3%,0%
O=C(CS(=O)(=O)c1ccccc1)NC1CCCCC1,8,?,?,-13%
CCC(=O)Nc1ccccc1C(=O)N1CCOCC1,-1,?,2.2%,-2%
O=C1[C@@H]2Cc3c([nH]c4ccccc34)C(c3ccccc3)N2C(=O)CN1C1CCN(Cc2ccccc2)CC1 (some centres not stated),/,8%,-4.3%,15%
CCC(=O)c1ccc(OCC(=O)NCCC2=CCCCC2)c(OC)c1,/,10%,-2.1%,-8%
Cc1nn(CC(=O)Nc2cccc(S(N)(=O)=O)c2)c(C)c1[N+](=O)[O-],-3,1%,0.7%,-12%
CC12CCC(C/C1=N\OC(=O)c1ccc(F)cc1)C2(C)C (configuration not stated),-3,-12%,1.6%,0%
O=C(NCC1COc2ccccc2O1)c1ccc(NC(=O)C(c2ccccc2)c2ccccc2)cc1 (configuration not stated),-9,13%,-4.1%,16%
CCN(CC)CCOC(=O)c1ccc2c(c1)OCCO2,-7,-17%,1.4%,-10%
CSC1=C(C#N)C(=O)NC(c2ccccc2O)S1 (configuration not stated),-11,6%,4.0%,-3%
CS(=O)(=O)Nc1ccc(C2=NN(C(=O)c3ccco3)C(c3ccc(F)cc3)C2)cc1 (configuration not stated),-10,4%,-4.3%,15%
O=C(CNC(=O)c1ccccc1F)OCCCOC(=O)CNC(=O)c1ccccc1F,/,-6%,-4.4%,/
O=C(CN1C(=O)NC2(CCCC2)C1=O)Nc1nc(-c2ccc(F)cc2)cs1,2,-6%,-2.7%,21%
CC(=O)c1cc(Cc2csc(C(C)=O)c2)cs1,-2,-2%,2.3%,-19%
O=C(c1ccccc1)N(Cc1ccccc1)c1ccccn1,-8,8%,-0.6%,-2%
CCOC(=O)C1CCN(C(=O)C(C)Sc2nnc3ccccn23)CC1 (configuration not stated),/,-12%,-2.1%,/

# A few values from the list.
# `O=C1[C@@H]2Cc3c([nH]c4ccccc34)C(c3ccccc3)N2C(=O)CN1C1CCN(Cc2ccccc2)CC1` (some centres not stated) – miR-21 reporter = 15%
# `O=C(CN1C(=O)NC2(CCCC2)C1=O)Nc1nc(-c2ccc(F)cc2)cs1` – Rango-impB inh = -2.7%
# `COC(=O)c1nn(-c2ccccc2)c(Cl)c1/C=N/OCc1c(Cl)cccc1Cl` – Rango-impB inh = 1.4%

# Next records
SMILES,GLA inh pH 4.5,Rango dissoc inh,Rango-impB inh,miR-21 reporter
C=CCO/N=C/C1=C(O)C(C(=O)OC)C(C)(C)CC1=O (configuration not stated),8,-8%,3.3%,-1%
CN(C)c1cccc2c(S(=O)(=O)N3CCOCC3)cccc12,2,-5%,?,-6%
Cc1ccc(C(=O)C2=C(O)C(=O)N(Cc3ccco3)C2c2cccc(Br)c2)o1 (configuration not stated),/,13%,6.1%,-3%
N#CCC(=O)Nc1ccc(C(=O)OCC(=O)Nc2ccccc2-c2ccccc2)cc1,-2,-10%,-2.9%,-1%
O=C(O)c1cc2n(n1)C(C(F)(F)F)CC(c1ccco1)N2 (configuration not stated),5,-11%,-0.8%,-4%
CCOc1cccc(NC(=O)C2CC(=O)N(C)C(=Nc3cccc(F)c3)S2)c1 (configuration not stated),-6,-2%,-0.1%,15%
COC(=O)c1ccc2c(=O)n(-c3ccccc3F)c(=S)[nH]c2c1,3,0%,2.2%,2%
O=C(CN1CCN(S(=O)(=O)c2ccccc2F)CC1)Nc1ccccc1C(=O)c1ccccc1,-5,1%,-0.4%,14%
Cn1c(=O)cc(SCC(=O)NCCCN2CCOCC2)c2ccc(Cl)cc21,3,-2%,5.9%,0%
CCn1cc(CCCC(=O)NCc2cccnc2)c2ccccc21,/,-12%,2.6%,-9%
COc1ccc(N(CC(=O)N2CCN(Cc3ccccc3)CC2)S(C)(=O)=O)cc1OC,/,16%,5.3%,1%
COc1ccc2cc(-c3cccnc3)ncc2c1,/,-7%,-0.7%,/
CC(C)N(C(=O)CSc1nnc(Cc2csc(Nc3ccccc3)n2)o1)C(C)C,-7,-5%,-0.1%,7%
CCOc1nc(-c2ccccc2)ccc1-c1noc(COc2ccccc2)n1,-18,27%,-3.3%,-7%
O=c1/c(=C/c2ccccn2)sc2nc3ccccc3n12,5,-2%,2.8%,-56%
COc1ccc(C)cc1S(=O)(=O)Nc1cccc(Cl)c1,-5,2%,-0.6%,-3%
COc1ccc(-c2nc3c(c(SCC(=O)N4CCOCC4)n2)Cc2c(CO)cnc(C)c2O3)cc1,/,-2%,?,-9%
O=C(CCN1C(=O)C2C3CC(C(Br)C3Br)C2C1=O)OCC(=O)c1cccc([N+](=O)[O-])c1 (configuration not stated),/,2%,0.7%,-1%
COC(=O)c1c(NC(=O)COC(=O)c2ccccn2)sc(C)c1C,/,-10%,-3.0%,/
COc1ccc(NC(=O)CNC(=O)C23CC4CC(CC(C4)C2)C3)c(OC)c1,/,-3%,-0.1%,/
CCc1ccc(CNC(=O)CCCC(=O)n2nc(C)c3ccccc32)cc1,/,-7%,4.1%,1%
O=C(CCc1nc2ccccc2c(=O)[nH]1)NCC(=O)Nc1ccc(F)c(F)c1,/,-11%,?,/
CCOc1ccc(NC(=O)C(=O)NCCN2CCN(S(=O)(=O)c3ccc(C)cc3)CC2)cc1,/,-3%,3.3%,-1%

# In another format: entries from further up
Structure | GLA inh pH 4.5 | Rango dissoc inh | Rango-impB inh | miR-21 reporter
CCn1cc(CCCC(=O)NCc2cccnc2)c2ccccc21 | / | -12% | 2.6% | -9%
COc1ccc(N(CC(=O)N2CCN(Cc3ccccc3)CC2)S(C)(=O)=O)cc1OC | / | 16% | 5.3% | 1%
COc1ccc2cc(-c3cccnc3)ncc2c1 | / | -7% | -0.7% | /
CC(C)N(C(=O)CSc1nnc(Cc2csc(Nc3ccccc3)n2)o1)C(C)C | -7 | -5% | -0.1% | 7%
CCOc1nc(-c2ccccc2)ccc1-c1noc(COc2ccccc2)n1 | -18 | 27% | -3.3% | -7%
O=c1/c(=C/c2ccccn2)sc2nc3ccccc3n12 | 5 | -2% | 2.8% | -56%
COc1ccc(C)cc1S(=O)(=O)Nc1cccc(Cl)c1 | -5 | 2% | -0.6% | -3%
COc1ccc(-c2nc3c(c(SCC(=O)N4CCOCC4)n2)Cc2c(CO)cnc(C)c2O3)cc1 | / | -2% | ? | -9%
O=C(CCN1C(=O)C2C3CC(C(Br)C3Br)C2C1=O)OCC(=O)c1cccc([N+](=O)[O-])c1 (configuration not stated) | / | 2% | 0.7% | -1%
COC(=O)c1c(NC(=O)COC(=O)c2ccccn2)sc(C)c1C | / | -10% | -3.0% | /
COc1ccc(NC(=O)CNC(=O)C23CC4CC(CC(C4)C2)C3)c(OC)c1 | / | -3% | -0.1% | /
CCc1ccc(CNC(=O)CCCC(=O)n2nc(C)c3ccccc32)cc1 | / | -7% | 4.1% | 1%
O=C(CCc1nc2ccccc2c(=O)[nH]1)NCC(=O)Nc1ccc(F)c(F)c1 | / | -11% | ? | /
CCOc1ccc(NC(=O)C(=O)NCCN2CCN(S(=O)(=O)c3ccc(C)cc3)CC2)cc1 | / | -3% | 3.3% | -1%

# Some of the compounds tested (hit frequency here may not be typical).
